High-throughput results from PubChem BioAssay.
HSD17B inhib: qHTS Assay for Inhibitors of HSD17B4, hydroxysteroid (17-beta) dehydrogenase 4. 3-hydroxyacyl-CoA dehydrogenase type-2 (Homo sapiens), Q99714. recombinant HSD17B10, NADH fluorescence kinetic; many of its hits are not listed in these tables. Potency, µM (highest dose often 57.1 µM), for the others: at the top dose activity change, negative = inhibition, most hits filed as inhibitors. actives 7.6% (n = 75,000); active means well fitted inhibition curve with a large enough effect; inconclusive means small, poorly fitted or top-dose-only effect; inactive means no such curve, though single readings can be large or run the other way;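 further: the protocol describes HADH2 (HSD17B10) and not the HSD17B4 of the title; nearly all actives have a fitted effect of over 70% in size; most hits overshoot -100% by far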
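20 nM HADH2, pH 9.0 Tris/Tween; cpd preinc 15 min RT; start w/ 1 mM NAD+ + 90 uM b-hydroxybutyryl-CoA; kinetic fluor ex360/em450 q30s x 4 min; delta last-first.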
* = called active by the depositor; ? = inconclusive; [ ] = remark or other dose. On the % scale 0 is the no-effect control and ±100 the full control effect; potency means the concentration at half of the fitted maximal effect.

entry	SMILES	HSD17B inhib
1	Cc1nnc(SC(C)C(=O)Nc2ccc(Cl)cn2)n1Cc1ccccc1 (stereo not drawn)	-1.5%
2	CCOc1ccc2c(c1)c1nnc(SCC(=O)N3CCCCC3C)nc1n2C (stereo not drawn)	-4.4%
3	COc1ccccc1C(=O)N1CCC(C(=O)c2ccc(F)cc2)CC1	-1.9%
4	CN1/C(=C\C(=O)COC(=O)Cn2nnc(-c3ccccc3)n2)C(C)(C)c2ccccc21	14.4%
5	COC(=O)n1c(=O)oc2ccccc21	9.8%
6	C=C(Br)Cn1c(CC(C)C)nc2ccccc21	-2.3%
7	CCCCOC(=O)c1cccc(NC(=O)CCC(=O)O)c1	-6.0%
8	CS(=O)(=O)N(CC(=O)O)c1cc(Cl)cc(Cl)c1	8.3%
9	CCOC(=O)c1oc2ccccc2c1CN1CCN(c2ccccc2)CC1	-3.8%
10	O=C(CN1C(=O)C2C3C=CC(C3)C2C1=O)NCCc1ccccc1Cl (stereo not drawn)	-3.0%
11	CCOC(=O)c1cnc(SCc2ccccc2)nc1N	-7.0%
12	COc1ccc(-n2c(=O)c(C)nc3cnc(Nc4cccc(OC)c4)nc32)cc1	3.0%
13	CCCCCOC(=O)NCC(O)c1ccccc1 (stereo not drawn)	3.1%
14	COc1ccc(C(C)=O)cc1COC(=O)c1ccc(OCc2c(C)noc2C)cc1	0.0%
15	Cc1cc(C)n(CC(O)COCc2ccco2)n1 (stereo not drawn)	4.1%
16	Cn1c(C(=O)O)c(CC(=O)NCc2cccnc2)c2ccccc21	-2.5%
17	C[C@@H](C(=O)Nc1ccc2ccccc2c1)[C@@H]1C[C@@]1(C)[C@@H](NC(=O)c1cnccn1)c1ccccc1	-9.9%
18	O=c1cnn(-c2ccccc2)c(-c2ccccc2)c1	5.2%
19	CN(C)C(C(=O)NC1CCCCC1)c1ccc(Cl)cc1 (stereo not drawn)	-1.0%
20	COC(=O)c1cn(NC(=O)c2cnccn2)c(=O)c2ccccc12	7.3%
21	COc1ccc(OC)c(NC(=O)c2cc3sccc3n2C)c1	2.0%
22	Cc1ccc(NC(=O)CCNS(=O)(=O)c2ccc3c(c2)oc(=O)n3C)cc1C	6.7%
23	Cc1ccc(S(=O)(=O)N2CCCCC2)cc1C(=O)Nc1ncn[nH]1	-10.9%
24	COc1ncc2nc(CCc3ccccc3)c(=O)n(CCc3ccccc3)c2n1	1.3%
25	O=C(Nc1cccnc1)Nc1ccccn1	8.4%
26	O=C(Cn1nc(C(F)F)cc1C1CC1)NCCC1=CCCCC1	9.0%
27	CCN(CCC(=O)Nc1cc(OC)cc(OC)c1)Cc1ccccc1	10.0%
28	Cn1c(COc2ccc3ccccc3c2)nnc1SCC(=O)O	1.9%
29	CCCn1c(SCC(=O)Nc2ccccc2C(=O)OCC)nc2c1c(=O)n(C)c(=O)n2C	2.2%
30	Cc1cc(C)n(C(=O)c2cccc(S(=O)(=O)N3CCCC3)c2)n1	-9.0%
31	O=C(CCS(=O)CCC(=O)NCc1ccccc1)NCc1ccccc1	1.1%
32	CCC1CO1 (stereo not drawn)	-1.6%
33	O=c1oc2ccccc2n1Cc1ccccc1Cl	1.7%
34	CCCc1cc(=O)[nH]c(SCC(=O)N2CCC(C(=O)OCC)CC2)n1	9.9%
35	O=C(CSc1nnc(-c2ccco2)n1Cc1ccccc1)NC(=O)NCc1ccccc1	-4.0%
36	CC(C)c1ccc(OCC(O)Cn2cnc3ccccc32)cc1 (stereo not drawn)	-11.0%
37	Nc1nc(CN2CCN(Cc3ccccc3)CC2)nc(Nc2ccc3c(c2)OCCO3)n1	-1.5%
38	COCCn1c(=O)c(CCc2ccccc2)nc2cnc(Oc3cccc(Cl)c3)nc21	?
39	COCCn1c(C)cc(C(=O)COC(=O)c2c(C)nn(Cc3ccccc3)c2C)c1C	?
40	O=C1CC(c2ccccc2)n2nc(NC(=O)c3cccs3)nc2N1 (stereo not drawn)	5.3%
41	COc1ccc(CC(=O)N2CC3(C)CC2CC(C)(C)C3)cc1OC (stereo not drawn)	?
42	COc1ccc(CCNc2oc(COc3ccc(Br)cc3)nc2C#N)cc1OC	2.6%
43	Cc1ccc(N2CC(C(=O)Nc3ccc4c(c3)OCCO4)CC2=O)cc1 (stereo not drawn)	0.5%
44	Cc1cccc(NC(=O)COc2ccccc2C)n1	2.8%
45	CCCn1c(=O)c(C(=O)Nc2ccccc2C(=O)OC)c(O)c2ccccc21	-9.4%
46	O=C(C1CCC(=O)N1Cc1ccccc1Cl)N1CCN(c2ccc(F)cc2)CC1 (stereo not drawn)	6.3%
47	Cc1cc(C)c(C#N)c(SCC(=O)Nc2nnc(-c3ccccc3)s2)n1	?
48	COc1ccc(C(=O)/C=C(\N)C(F)(F)F)c(O)c1	?
49	Cc1csc(NC(=O)C(NS(=O)(=O)c2ccc(Br)s2)c2ccccc2)n1 (stereo not drawn)	-11.3%
50	CN(C)CCSCCO	4.5%[11.4 µM]

New compounds follow.
entry	SMILES	HSD17B inhib
51	COc1cc2nc(C3CCC3)n(NC(=O)C3CCCC(OC)C3)c(=O)c2cc1OC (stereo not drawn)	-5.1%
52	COc1ccc(C)cc1S(=O)(=O)N1CCCC(C(=O)NCC2CCCO2)C1 (stereo not drawn)	2.0%
53	Cc1c(C(=O)N2CCN(c3ncccn3)CC2)sc2nc3n(c(=O)c12)CCCC3	-12.4%
54	COCCn1c(C)cc(C(=O)CSc2nc(C)nc3sc4c(c23)CCC4)c1C	-8.6%
55	c1ccc(Cn2c(Sc3nnnn3-c3ccccc3)nnc2-c2ccccc2)cc1	9.2%
56	O=S(=O)(NCC(c1cccnc1)N1CCN(c2ccc(F)cc2)CC1)c1ccc(F)cc1 (stereo not drawn)	-2.3%
57	O=C(Cn1nc(Cl)nc1Cl)Nc1ccccc1	7.6%
58	O=c1cc(N2CCc3ccccc3C2)[nH]c(=O)n1-c1ccc(Br)cc1	1.4%
59	OCC1(c2cc(C(F)(F)F)n[nH]2)CCCCC1	9.0%
60	CCCN1CCN(C(c2cc3cc4c(cc3[nH]c2=O)OCO4)c2nnnn2C(C)(C)C)CC1 (stereo not drawn)	31.6µM*
61	Nn1c(SCC(=O)Nc2ccccc2)nnc1-c1cccnc1	10.6%
62	O=C(C1CCCN(c2nnc(-n3cccc3)s2)C1)N1CCN(c2ccccc2)CC1 (stereo not drawn)	1.2%
63	c1ccc(-c2cccc(-c3ccccn3)n2)nc1	4.9%
64	CCOC(=O)C1=C(C)SC2=NS(=O)(=O)CCN21	8.3%
65	O=C(Nc1ccc(F)cc1)C1CCC(N2C(=O)c3ccccc3C2=O)CC1 (stereo not drawn)	-0.2%
66	CN1CCCC2(CCN(C(=O)c3cccn3C)CC2)C1	6.9%
67	CN1CCN(P(=O)(c2ccccc2)c2nc3ccccc3s2)CC1 (stereo not drawn)	-3.2%
68	O=C(NCCn1cc(SCC(=O)N2CCOCC2)c2ccccc21)c1ccccc1	-25.6%
69	CCC1=C2CC[C@H]3C(=O)N(c4ccccc4)C(=O)[C@H]3[C@H]2[C@@]2(Cc3ccccc3)C(=O)N(CC(=O)OC)C(=O)N2C1=O	-25.5%
70	COCCNc1cc(-c2ccccc2CN(C)C)ncn1	?
71	O=C(NCCc1ccc(Cl)cc1)c1nnc(Cc2ccc(Cl)cc2)o1	4.8%
72	Cc1nnsc1-c1nc2ccccc2[nH]1	25.1µM*
73	CCN(CC)c1ccc2c(c1)C(=O)N(C)C2=O	71.0%[activator]
74	O=C(CCN1C(=O)C2CC=C(Cl)CC2C1=O)N1CCCCC1 (stereo not drawn)	-0.5%
75	Cc1c(C)n(C(=O)CN2CCC(C(N)=O)CC2)c2ccccc12	17.8%
76	O=C(CSc1nnc2ccccn12)NCCN1C(=O)CSC1=O	?
77	CCOc1ccc(OCc2ccc(C(=O)NCc3ccncc3)o2)cc1	-2.3%
78	O=C1c2ccccc2NC(c2ccc3c(c2)OCCO3)N1c1ccc2c(c1)OCCO2 (stereo not drawn)	31.6µM*
79	CCCOc1cccc(OCCSc2nc(C)cc(=O)[nH]2)c1	7.6%
80	CC(C)NCC(O)COCc1ccc(Cl)cc1 (stereo not drawn)	8.4%
81	CCN1CCN(C(c2ccccc2F)c2nnnn2Cc2ccc3c(c2)OCO3)CC1 (stereo not drawn)	5.6%
82	CSc1n[nH]c(NCc2cccs2)n1	-8.7%
83	CCCCc1cc2c(c(NC(C)=O)n1)c(=O)oc1ccccc12	-9.8%
84	NC(=O)CCn1nc(-c2ccc(Cl)cc2)c2ccccc2c1=O	5.0%
85	CC(=O)c1ccc(N2CCN(C(=O)c3ccco3)CC2)c(F)c1	-17.7%
86	CC(=O)OCC(OC(C)=O)C(OC(C)=O)C(OC(C)=O)C(=O)Nc1ccccc1C (stereo not drawn)	-4.5%
87	O=C(CSc1nnc(Cc2ccccc2)n1C1CCCCC1)N1CCOCC1	7.2%
88	Cc1cc2cc(CN(Cc3ccc4c(c3)OCO4)Cc3nnnn3C3CCCC3)c(=O)[nH]c2cc1C	-4.8%
89	COc1ccc(-n2c(Cc3cccn3C)nnc2SCC(=O)Nc2cc(C)cc(C)c2)cc1	-3.8%
90	O=C(CCCCC(=O)Nc1c(I)cc(I)c(C(=O)O)c1I)Nc1c(I)cc(I)c(C(=O)O)c1I	6.3%[25.6 µM]
91	CCN(CC)CC(C)(C)NS(=O)(=O)c1ccc(Cl)cc1	0.9%
92	Cc1nnc(SC(C)C(=O)NCC2CCCO2)n1-c1ccccc1 (stereo not drawn)	1.1%
93	COCC(=O)Nc1ccc(Nc2ccccc2)cc1	-11.2%
94	Cc1ccc(-c2n[nH]c(=O)c3ccccc23)cc1N	-3.6%
95	Cc1cc(C)n(-c2ccc(C(=O)Nc3sccc3C(N)=O)cc2)n1	-22.2%
96	CC(Sc1nncn1C)C(=O)Nc1nnc(C(C)C)s1 (stereo not drawn)	11.7%
97	Cc1nc2cnc(Oc3ccccc3)nc2n(C2CC2)c1=O	4.0%
98	O=c1oc2ccccc2c(O)c1/C=N/c1ncccn1	0.3%
99	CN(c1ccccc1)c1nc2ccsc2c(=O)s1	-11.3%
100	CCn1ccc(C(=O)Nc2ccc(S(=O)(=O)Nc3ccccc3OC)cc2)n1	-5.7%

(further entries)
entry	SMILES	HSD17B inhib
101	O=c1c(-c2ccc(F)cc2)nc2cncnc2n1C1CC1	1.1%
102	Cc1ccccc1CSc1nnc(C)c(=O)[nH]1	8.7%
103	COCCNC(=O)c1ccccc1-c1nc(-c2ccccc2Cl)no1	2.1%
104	C[C@H](O)Cn1cnc2c1c(=O)n(C)c(=O)n2C	4.2%[25.6 µM]
105	O=C(NCc1ccccc1)c1cc(=O)nc2sc(-c3ccccc3)nn12	?
106	N#Cc1cnn(-c2ccccc2)c1N	3.1%
107	CCOC(=O)C1CCN(C2CC(=O)N(c3cccc(Cl)c3)C2=O)CC1 (stereo not drawn)	-6.6%
108	COCCN(C(=O)COc1ccccc1)c1nnc(-c2cccnc2)s1	71.6%[activator]
109	Cn1cccc1C(=O)N1CCC2(CCCN(C(c3ccccc3)c3ccccc3)C2)CC1	-2.6%
110	O=S(=O)(c1cccc(S(=O)(=O)N2CCC(Cc3ccccc3)CC2)c1)N1CCOCC1	-0.9%
111	Cc1cccc(OCCCC(=O)Nc2nccs2)c1	0.1%
112	CS(=O)(=O)Nc1ccc(C(=O)N2CCCCC2)cc1	11.2%
113	O=C1CCc2cc(S(=O)(=O)NC(Cc3ccccc3)C(=O)NCC3CCCO3)ccc2N1 (stereo not drawn)	7.7%
114	O=C(C1CCN(S(=O)(=O)c2cccc3cccnc23)CC1)N1CCN(c2ccc(Cl)cc2)CC1	-2.6%
115	CCN1CCN(C(c2cccs2)C(C)NC(=O)C(C)C)CC1 (stereo not drawn)	2.6%
116	Cc1ccccc1C(=O)Nc1cccc(N)c1	-4.9%
117	Cc1cc(C(=O)N2CCCc3ccccc32)no1	-2.4%
118	CC1(C)CC(=O)CC(=NCC(=O)O)C1	0.2%
119	Cc1cc(/C=N/n2cnnc2)c(C)n1-c1cccc(Cl)c1	-6.0%
120	O=C(Nc1cccc(F)c1)N1CC2(CCN(C(=O)c3cnccn3)CC2)C1	-2.1%

Structural class: the entries above with a cyano group (3)
entry	SMILES	HSD17B inhib
42	COc1ccc(CCNc2oc(COc3ccc(Br)cc3)nc2C#N)cc1OC	2.6%
47	Cc1cc(C)c(C#N)c(SCC(=O)Nc2nnc(-c3ccccc3)s2)n1	?
106	N#Cc1cnn(-c2ccccc2)c1N	3.1%

Continued.
entry	SMILES	HSD17B inhib
121	CC(NC(=O)c1cccc(C(F)(F)F)c1)C1CCCO1 (stereo not drawn)	5.8%
122	COc1ccc(Cn2nnnc2C(c2ccc(N(C)C)cc2)N2CCC(C)CC2)cc1 (stereo not drawn)	-11.5%
123	COc1ccccc1N1CCN(C(=O)CSc2ncccc2-c2nc3ccccc3[nH]2)CC1	31.6µM*
124	O=C(O)c1[nH]c2ccccc2c1CC(=O)N1CCOCC1	?
125	CC(C)NC(=O)CN1CCN(c2ncccn2)CC1	1.9%
126	CCCCn1c(SCC(=O)Nc2cc(C)on2)nc2ccccc2c1=O	-6.5%
127	COc1ccc(N2C(=O)CC(NC34CC5CC(CC(C5)C3)C4)C2=O)c(OC)c1 (stereo not drawn)	-1.8%
128	OCCOCCn1c(-c2ccccc2)nc(=S)c2c1CCCC2	-5.8%
129	N#Cc1ccccc1OCC(=O)Nc1c(C(=O)C2CC2)oc2ccccc12	31.6µM*
130	C=CCn1c(-c2ccc(OC)c(OC)c2)cs/c1=N\c1ccccn1	-15.6%
131	CCCCc1ccc(Nc2ncnc3nc[nH]c23)cc1	9.6%

Not all compounds are listed. The share of hits here may be higher or lower than overall.
